Compound activity deposited in PubChem by National Center for Advancing Translational Sciences (NCATS).
gsp ag = agonists of gsp mutant (McCune-Albright syndrome); gsp mutant cells, cAMP HTRF, 30 min; control for the full effect not named in the record; Potency, µM (doses to about 76.9 µM), without a hit: at the highest dose activation (cAMP increase), actives largely listed as activators; actives 0.13% (n = 340,000); active = well fitted activation curve with a large enough effect; inconclusive = small, poorly fitted or top-dose-only effect, or another doubt; inactive = no such curve, though single readings can be large or run the other way; cell line not stated here;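 further: phosphodiesterase inhibitor Ro 20-1724 added with compounds to block cAMP breakdown; potency means the concentration at half of the fitted maximal effect; nearly all actives have a fitted effect of over 60% in size; about a fifth of the inactives were tested at one dose only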
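Cells stably selected in G418 were plated at 2000/well, grown 16-24 hr, then given compounds in DMSO with the PDE inhibitor […] (300 uM solution added) for 30 min at 37C; cAMP was read by HTRF.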
D2 ag = activates the human D2 dopamine receptor; actives 0.084% (n = 360,000); AID 624465; activation, % (test concentration not listed); DiscoveRx PathHunter D2 beta-arrestin, luminescence, 90 min; 100% = 57 uM dopamine signal; P14416; in the data active = activation above about 40%; inconclusive = about 15% to 40%; inactive = below about 15%; further: compound concentration not given in the record; the text of the record calls up to 30% inactive
Target sequence (P14416 whole entry, looked up): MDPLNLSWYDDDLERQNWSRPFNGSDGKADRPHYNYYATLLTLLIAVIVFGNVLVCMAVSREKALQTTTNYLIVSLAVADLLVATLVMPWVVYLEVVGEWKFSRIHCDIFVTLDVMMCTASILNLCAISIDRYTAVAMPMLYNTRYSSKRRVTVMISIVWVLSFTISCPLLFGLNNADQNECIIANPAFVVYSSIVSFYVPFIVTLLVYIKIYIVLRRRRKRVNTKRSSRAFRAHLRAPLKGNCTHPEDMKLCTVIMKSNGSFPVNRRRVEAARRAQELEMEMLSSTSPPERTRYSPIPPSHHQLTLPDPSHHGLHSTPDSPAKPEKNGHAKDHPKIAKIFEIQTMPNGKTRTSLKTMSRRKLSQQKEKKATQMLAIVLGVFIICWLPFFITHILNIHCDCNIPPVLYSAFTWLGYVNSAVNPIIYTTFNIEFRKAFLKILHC
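DiscoveRx PathHunter D2 beta-arrestin cells (2,100/well) attached overnight, then compound-stimulated 90 min at 37 C in HBSS/10 mM HEPES/0.1% Tween-20 buffer; beta-galactosidase complementation read by luminescence after 1 h at ambient temperature. Dopamine 57 uM final (EC100) as control.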
D2 potentiator = potentiates the human D2 dopamine receptor allosterically. potentiation, % (concentration not given with the values). P14416. actives 0.23% (n = 360,000). AID 624464. DiscoveRx D2 beta-arrestin cells, luminescence, 90 min; 100% = 57 uM dopamine signal; active = potentiation of 50% or more; inconclusive = 30% to 50%; inactive = 30% or less;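 further: compound concentration not given in the record; tested on top of an EC20 dose of dopamine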
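PathHunter beta-arrestin assay in DiscoveRx D2 cells. Compounds were added with an EC20 of dopamine (50 nM final) for 90 min at 37 deg C. Luminescence was read 1 h after detection reagent, with 57 uM dopamine as the EC100 control.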
Six1-Eya2 blk = Six1/Eya2 interaction inhibition | activity change, % (no concentration beside the values) | actives 0.56% (n = 360,000) | AlphaScreen GST-Six1/His-Eya2 binding, biochemical; stronger effect = lower value; control for the full effect not named in the record | AID 651725 | Q15475+O00167; in the data active = activity change below about -65%; inconclusive = about -30% to -65%; inactive = above about -30%; further: on the % scale 0 is the no-effect control and ±100 the full control effect; compound concentration not given in the record
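GST-Six1 + His-Eya2 (5X stock: 250/500 nM); Tris pH 8.0, 300 mM NaCl, 0.05% BSA, 0.02% Tween 20; GSH donor/Ni acceptor beads; 1 h 37 °C dark; AlphaScreen readout.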
gsp antag = antagonizes gsp, the McCune-Albright syndrome mutation | gsp-mutant cells, cAMP HTRF, 30 min; control for the full effect not named in the record | Potency, µM (titrated, usually from 76.9 µM), inactives show top-dose activity change, negative = inhibition, usual class: inhibitors | actives 0.4% (n = 340,000) | AID 624288; active = falling curve of any shape with a large fitted effect; inconclusive = falling curve, mostly with a smaller effect; inactive = flat or rising curve; cell line not stated here;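 further: intracellular cAMP measured with PDE inhibitor Ro 20-1724 present during compound exposure; potency means the concentration at half of the fitted maximal effect; on the % scale 0 is the no-effect control and ±100 the full control effect; nearly all actives have a fitted effect of over 65% in size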
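Cells, 2000/well, grown 16–24 h in DMEM 10% FBS with 0.5 mg/ml G418, then compounds plus […] (300 uM addition stock), 30 min at 37C. cAMP read by HTRF (cAMP-d2 and anti-cAMP antibody-K in lysis buffer) after 30 min RT.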
CtBP-E1A blk = CtBP/E1A binding inhibition | AlphaScreen GST-E1A/His-CtBP binding, 1536-well; stronger effect = lower value; control for the full effect not named in the record | AID 651724 | actives 0.49% (n = 340,000) | activity change, % (concentration not given with the values); in the data active means activity change below about -65%; inconclusive means about -30% to -65%; inactive means above about -30%; further: on the % scale 0 is the no-effect control and ±100 the full control effect
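AlphaScreen with 125 nM GST-E1A and 125 nM His-CtBP (5X stocks) in Tris pH 8.0, 300 mM NaCl, BSA, Tween 20, TCEP. Compounds preincubated 2 h at 37 deg C, then glutathione donor/nickel acceptor beads added for 1 h at 37 deg C in dark.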
* marks the source's active call; other numbers are inactive results; ? = inconclusive; / = no result given; [ ] = dose if it differs, or a comment. Compounds as they come (roughly 1.4% active in at least one column).

SMILES	gsp ag	Six1-Eya2 blk	gsp antag	CtBP-E1A blk	D2 potentiator	D2 ag
CCOC(=O)N1CCN(C(=O)c2cc3c(=O)n(C)c4ccccc4c3n2C)CC1	-4%	-5	1%	-1	2	-0.3
O=C(O)c1ccccc1CC(CCc1ccccc1)C(=O)O (stereo not drawn)	-9%	8	-1%	6	-12	-5.1
CN(Cc1cnn(-c2ccccc2)c1)C(=O)c1ccc(S(=O)(=O)NCc2ccco2)cc1	-11%	9	/	7	-11	-0.3
O=S(=O)(c1ccccc1)N1CCc2ccccc2C1	5%	8	12%	/	-5	2.2
CN(CC1CCCN(CCc2ccc(Cl)cc2)C1)C(=O)c1ccc2nc[nH]c2c1 (stereo not drawn)	-29%	-2	1%	0	-34	-1.0
COc1cc(NC(=O)C/C(C)=N/NC(=O)C(=O)NC2CCCCC2)c(OC)cc1Cl	-11%	?	-9%	-9	-16	-2.5
COC1=CC2(O)CCCC2=CC1=O (stereo not drawn)	/	1	-20%	8	8	1.7
Cc1cccc(NC(=O)CNC(=O)CCc2nc3sc4c(c3c(=O)[nH]2)CCCC4)c1C	?	-14	-14%	8	-14	-1.0
Cc1ccc([C@@H]2CC=C(C(=O)O)[C@H](c3ccc(Cl)cc3)N2S(=O)(=O)c2ccccc2C)cc1	/	-10	-7%	-25	/	-2.7
Cc1ccc(C(=O)OCC(=O)Nc2ccc3c(c2)OCO3)c(O)c1	7%	4	-13%	-2	-4	7.8
O=c1[nH]ncn1-c1ccc(Br)cc1	-35%[inhibitor]	3	6%	6	0	3.9
COc1ccc(OC)c(S(=O)(=O)N(C)CC(=O)N2CCN(c3ccc(F)cc3)CC2)c1	-6%	-2	-8%	-4	-21	-1.0
O=C(COn1nnc2ccc(Cl)cc21)NC1CCS(=O)(=O)C1 (stereo not drawn)	28%	8	14%	0	1	-2.5
CC(O)CSc1nc2c(c(=O)[nH]c(=O)n2C)n1Cc1ccccc1 (stereo not drawn)	-20%	17	-17%	0	-5	-4.3
CN(C)C=NC(=O)c1ccc(N2CCN(c3ncc(C(F)(F)F)cc3Cl)CC2)cc1	16%	6	1%	3	-12	-1.8
O=C(NCc1ccco1)c1cc(S(=O)(=O)N2CCOCC2)ccc1Cl	-4%	1	5%	-2	-7	-3.0
O=C(CN1C(=O)C2C3CC(C(Br)C3Br)C2C1=O)OCC(=O)c1cccc([N+](=O)[O-])c1 (stereo not drawn)	11%[15.4 µM]	7	-5%	-2	-14	-7.5
CCC(C)(C)NC(=O)CCCSc1nc2ccccc2[nH]1	-14%	2	-7%	11	-8	3.1
COc1ccc(OC)c(S(=O)(=O)N2CCCC(C(=O)N3CCC(C(N)=O)CC3)C2)c1 (stereo not drawn)	1%	5	4%	-9	8	-0.5
Cc1cc(C)c[n+](CC(=O)c2c(C)cc(C)c([N+](=O)[O-])c2C)c1	-14%	-2	7%	2	0	-1.2
CCNC(=O)C1CC(=O)OC12CCCCC2 (stereo not drawn)	-2%	4	9%	-7	-5	-0.8
Cn1ccc(=O)c2cc([N+](=O)[O-])ccc21	?	1	/	-1	0	-2.1
O=C(CN1CCN(c2ccc(F)cc2)CC1)Nc1ccc2c(c1)OCCO2	13%[15.4 µM]	2	/	25	-1	-0.1
Cc1cc(Cl)ccc1OC(C)C(=O)NNC(=O)C1CCCCC1C(=O)O (stereo not drawn)	44%	-15	-3%	-11	-6	-2.0
CCN1C[C@@H]2[C@@H]3C(=O)N(C)C(=O)[C@@H]3[C@](Cc3ccccc3)(C(=O)OC)N2C1=NC1CCCCC1	/	-3	8%	-5	-3	-1.1
CC(=O)NCCNC(=O)C1CCC(CNc2nc(=S)[nH]c3ccccc23)CC1 (stereo not drawn)	26%	-13	6%	/	-2	1.6
CN(C(=O)COC(=O)Cc1c(Cl)cccc1Cl)C1CCS(=O)(=O)C1 (stereo not drawn)	16%	9	7%	/	2	-0.8
Cc1cccc(C(=O)OC(C)C(=O)N2CCc3ccccc3C2)c1C (stereo not drawn)	-2%	8	-8%	10	-10	-5.2
Cc1ccc(CN2CCN(Cc3cn(C(C)C)c4ccccc34)CC2CCO)o1 (stereo not drawn)	-17%	-5	5%	-3	-7	-1.4
CCCn1nc(C(=O)Nc2ccc(S(=O)(=O)Nc3ncccn3)cc2)c2ccccc2c1=O	-19%[15.4 µM]	-11	-18%	-1	1	-1.2

Continued:
SMILES	gsp ag	Six1-Eya2 blk	gsp antag	CtBP-E1A blk	D2 potentiator	D2 ag
CCCC(C)(C)C(=O)N1CCC1(C)C(=O)NS(=O)(=O)c1cccc(Cl)c1 (stereo not drawn)	/	3	/	1	7	-1.3
CCOc1ccccc1NC(=O)C(CC(C)C)NC(=O)C1CCC(C)CC1 (stereo not drawn)	17%	0	-4%	3	-9	-4.5
Cc1ccc(-n2cc(S(=O)(=O)c3ccc(C)cc3)[nH]c2=O)cc1	4%[15.4 µM]	-8	13%	-5	-1	-2.8
Cc1ccccc1NS(=O)(=O)c1ccc(NS(=O)(=O)c2cccs2)cc1	23%	1	-4%	6	-1	-0.1
NC(=O)C1CCCN(S(=O)(=O)c2ccc(Br)cc2)C1 (stereo not drawn)	1%	-4	0%	-1	-20	0.6
Cc1cc(=S)c2ccccc2[nH]1	?	-8	9%	1	-15	-5.5
COC(=O)c1sc2nc(N)c(C#N)cc2c1N	?	-1	?	-17	-7	-1.6
Cc1[nH]c2ccc(C(=O)OC(C)C(=O)N(C)C3CCCCC3)cc2c1C (stereo not drawn)	-22%[15.4 µM]	-16	-16%	-27	-35	0.4
CCS(=O)(=O)n1nc(-c2ccc(OC)cc2)nc1N	0%[15.4 µM]	4	1%	-3	-3	-1.0
Cc1ccc(-c2n[nH]c(=S)n2Cc2ccccc2)cc1	19%	-4	-6%	4	0	-2.5
CC1(NC(=O)CN2CCN(c3cnn(-c4ccccc4)c(=O)c3Cl)CC2)CCS(=O)(=O)C1 (stereo not drawn)	-1%	3	-11%	10	-1	-6.3
COCCNC(=O)Cn1c(=O)n(CCC(=O)NCCc2ccccc2)c(=O)c2ccccc21	-17%	0	11%	5	-3	0.5
O=c1cc(-c2ccccc2Cl)oc2c(NS(=O)(=O)c3ccccc3OC(F)(F)F)ccc(O)c12	24%	?	-17%	/	-4	0.6
CN(C)c1ccc(/C=C/C(=O)c2ccc(O)cc2)cc1[N+](=O)[O-]	-33%[inhibitor]	12	-31%	0	-16	-8.6
Cc1nnc(SCC(=O)N2c3ccccc3C(C)(c3ccccc3)CC2(C)C)s1 (stereo not drawn)	5%	-6	?	-2	-8	-8.4
CC(=O)N1c2ccccc2C(CBr)=CC1(C)C	5%[15.4 µM]	-13	8%	1	-3	-14
COc1ccc(NC(=O)CCSc2nnnn2C)cc1	4%[15.4 µM]	2	15%	0	-5	-1.4
Nc1c(C(=O)CSc2nc(-c3ccccc3)cs2)c(=O)[nH]c(=O)n1C1CC1	-8%	-3	2%	/	-17	?
CC(Oc1ccc(Cl)cc1)C(=O)NCCN1C(=O)S/C(=C\c2cccnc2)C1=O (stereo not drawn)	5%	-12	?	0	-15	-3.4
O=c1c2c3c(sc2ncn1-n1cccc1)CCCCC3	-2%	-6	-13%	-7	5	-0.4
O=C(C[C@H]1C/C=C\C[C@@H](Cc2ccc(F)cc2)C(=O)OC[C@H]2CCCN2C1=O)N[C@@H](CO)Cc1ccccc1	/	1	0%	-24	-44	0.9
COc1ccc(CN2CCN(Cc3c[nH]c4ccccc34)CC2)cc1OC	-65%[inhibitor]	4	/	-28	-28	-2.9
Cc1nnc(NC2=NCCCCC2)o1	23%	-9	7%	-2	6	-0.5
CC(=O)Nc1ccc(NC(=O)C2CCN(c3c(Cc4ccccc4)c(C)nc4ncnn34)CC2)cc1	-27%	-2	6%	7	-4	0.2
O=C(CSc1nc2ncc(Cl)cc2[nH]1)Nc1cccc(F)c1	-21%	0	-22%	-1	-20	-1.4
NC(=O)C1=C[C@H](c2coc3ccccc3c2=O)C[C@H](OCc2ccc(CO)cc2)O1	/	1	-7%	0	-3	-3.3
COc1ccc(/C=C2/SC(=S)N(NS(=O)(=O)c3ccccc3)C2=O)cc1	-8%[15.4 µM]	-10	?	0	-9	-8.8
Cc1cc(C)cc(NC(=O)c2cc(C)nc3ccccc23)c1	0%[15.4 µM]	6	-16%	8	1	7.5
Cc1ccc(C(=O)C(C)OC(=O)Cn2c(C)csc2=O)cc1 (stereo not drawn)	0%	0	4%	-7	-11	-1.9
COc1ccc(/C(C)=N/Nc2nncc3ccccc23)cc1	-9%[15.4 µM]	-10	7%	1	2	-0.9

Additional records
SMILES	gsp ag	Six1-Eya2 blk	gsp antag	CtBP-E1A blk	D2 potentiator	D2 ag
CC(C)c1cc(C(=O)N/N=C/c2cccnc2)n[nH]1	14%[15.4 µM]	2	-16%	10	-5	-0.1
O=C(COc1ccc(Cl)c(Cl)c1)NN1C(=O)C2C(C1=O)C1C=CC2C12CC2 (stereo not drawn)	19%	12	?	/	-3	-5.0
CC(=O)c1ccc(N2CCN(C(=S)Nc3ccc(Cl)c(Cl)c3)CC2)cc1	-9%[15.4 µM]	2	1%	-2	-1	-0.6
CCOC(=O)N1CCN(c2ccc(Cl)cc2)CC1	5%	2	20%	0	-6	-0.6
CCc1ccc(NS(=O)(=O)c2c(C)noc2C)cc1	6%	9	1%	/	-6	0.4
CCOC(=O)/C(C#N)=C/c1ccc(OCC(=O)Nc2ccc(C)c(C)c2)c(OC)c1	-42%	-3	-24%	-7	-20	-4.2
CCOC(=O)NC(=O)/C(N=Nc1cc(C)cc(C)c1)=C(\C)O	10%[15.4 µM]	4	/	1	1	9.3
CCOC(=O)c1c(C)nc2c(c1-c1cc(OC)ccc1OC)C(=O)CC(C)(C)C2	-3%	-2	-3%	/	-1	-8.9
CC(C)OC(=O)c1c(NC(=O)c2ccco2)sc2c1CCCCC2	1%	23	-8%	17	2	-2.2
Cc1noc(C)c1COc1ccccc1C(=O)N1CCN(S(=O)(=O)c2ccccc2C#N)CC1	-51%[inhibitor]	10	-17%	-13	-11	-0.1
Cc1ccc2nc(NC(=O)CSc3nc(=O)n(CCCN(C)C)c4c3CCC4)sc2c1	18%[15.4 µM]	-8	-5%	-5	-10	-5.6
